UUG fidelity: modulators of start codon recognition fidelity in yeast; S. cerevisiae UUG-firefly luciferase reporter, luminescence/redox ratio; activity score, % at 18.7 µM; 350,000 compounds, 0.13% hits; AID 602363;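 active means replicate mean at a twofold rise or more, about +100% in these data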;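 further: firefly luciferase made from a UUG start codon reports start codon fidelity; reporter light over untreated wells divided by growth signal over untreated wells; some hits fall short of that in this replicate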
Rce1 inhib: blocks yeast Ras-converting enzyme | AID 2563 | yeast membranes, quenched prenylated peptide cleavage fluorescence | calls only | 290,000 compounds, 0.27% hits | Q03530;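 active means fall in fluorescence gain of 50% or more versus controls, with final raw signal at or below 3038400; inconclusive means same 50% fall but final raw signal above 3038400; inactive means fall in fluorescence gain under 50%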;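 further: plate controls were neutral control wells for no effect and wells lacking membranes for full effect; tested at 10 µM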
PABP FP inh: PABP-poly(A) binding inhibition; P11940; AID 2014; inhibition, % at 35 µM; PABP-poly(A) RNA binding, fluorescence polarization; 290,000 compounds, 1% hits;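 active means 50% or more with normal probe brightness, or confirmed in later tests; inconclusive means above 50% with abnormal brightness, or retests that disagree; inactive means below 50% or failed in later tests; about a fifth of its hits are not listed in these tables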;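 further: calls also rest on retests at 20 µM and on dose response follow-up; controls were probe without protein and protein plus probe with vehicle; some compounds called inactive have numbers as strong as hits; many hits fall short of the cut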
Target sequence (P11940 whole entry, looked up): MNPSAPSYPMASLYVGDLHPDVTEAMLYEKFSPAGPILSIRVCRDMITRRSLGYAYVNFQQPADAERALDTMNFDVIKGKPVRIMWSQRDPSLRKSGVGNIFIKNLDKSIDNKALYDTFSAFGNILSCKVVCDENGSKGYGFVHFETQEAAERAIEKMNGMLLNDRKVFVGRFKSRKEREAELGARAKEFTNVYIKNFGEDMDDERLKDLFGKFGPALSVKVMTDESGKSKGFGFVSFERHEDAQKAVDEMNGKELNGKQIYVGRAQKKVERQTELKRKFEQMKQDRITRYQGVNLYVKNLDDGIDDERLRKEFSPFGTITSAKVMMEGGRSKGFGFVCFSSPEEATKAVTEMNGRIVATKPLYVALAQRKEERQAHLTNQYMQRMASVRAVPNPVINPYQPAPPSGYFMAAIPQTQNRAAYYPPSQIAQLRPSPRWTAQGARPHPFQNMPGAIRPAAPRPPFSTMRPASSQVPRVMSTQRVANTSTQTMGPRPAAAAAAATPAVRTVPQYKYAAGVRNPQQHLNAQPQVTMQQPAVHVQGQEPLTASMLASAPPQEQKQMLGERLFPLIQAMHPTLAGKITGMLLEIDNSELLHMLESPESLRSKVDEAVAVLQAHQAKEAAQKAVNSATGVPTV
MT1-MMP act inh: blocks activation of human MT1-MMP; GFP/RFP ratio change, % at 20 µM; AID 651647; HT1080 RFP-PRO-GFP cells, GFP/RFP ratio fluorescence, overnight; percent of plate control window, DMSO zero; P50281; 360,000 compounds, 0.061% hits;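 active means GFP/RFP ratio change of at least 30% with cell ATP level not reduced by more than half and red fluorescence within 50% of control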; further: strong numbers were not always called active
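Test system: HT1080 RFP-PRO-GFP cells; Benchmarks: DMSO and RFP-L50D-GFP cell wells; Timing: cells overnight before dosing, compound overnight, 37 °C, 5% CO2; Compound: one 20 µM compound dose with 1% DMSO; Read-out: GFP/RFP fluorescence ratio.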
CSC inhib: blocks cancer stem cells; cancer stem cell-like cells viability, luminescence; AID 2717; inhibition, % at 7.5 µM; 300,000 compounds, 1.1% hits;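 active means mean at 75% or more and at least half the replicates too; inconclusive means mean and replicates disagree; tested in HMLE shEcad cells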;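 further: 0% = median of negative and 100% = median of positive control wells; the first replicate is given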
Env fusion inh: inhibitors of HIV Env-mediated cell fusion; HeLa-JRFL Env/CEM21 cell fusion, luciferase; inhibition, % at 12.3 µM; 360,000 compounds, 1.1% hits; AID 651610;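 active means mean replicate inhibition score of at least 50 and every replicate individually at or above 50; inconclusive means only one of the two criteria met; inactive means mean below 50 and not all replicates reaching 50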;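 further: 0% = plate neutral controls and 100% = maraviroc near 300 nM; one replicate is shown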
eIF4H inh: inhibitors of RNA binding by human eIF4H. eIF4H fluorescence polarization binding assay. AID 2012. Q15056. 290,000 compounds, 0.94% hits. inhibition, % at 35 µM;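 active means 50% or more with normal probe brightness, or confirmed in later tests; inconclusive means above 50% with abnormal brightness, or retests that disagree; inactive means below 50% or failed in later tests; about a fifth of its hits are not listed in these tables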;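 further: calls also rest on retests at 20 µM and on dose response follow-up; 0% = protein and probe with vehicle and 100% = probe without protein; strong numbers were not always called active; many hits fall short of the cut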
MT1-MMP act inh RFP: second read-out of MT1-MMP act inh, no call of its own (marks repeat the call); RFP signal change, %; measured here: RFP expression control read;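 0 = vehicle wells; hits needed this value within 50% of zero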
* = called active by the depositor; i = inactive; ? = inconclusive; nt = not tested or not shown; + = active, no number. These rows are one share of the data. The share of hits here may be higher or lower than overall.

SMILES	UUG fidelity	Rce1 inhib	PABP FP inh	MT1-MMP act inh	MT1-MMP act inh RFP	CSC inhib	Env fusion inh	eIF4H inh
O=C(/C=C/c1ccc([N+](=O)[O-])cc1)OCC(=O)N1CCOCC1	-16	nt	nt	-4	2	nt	-31	nt
CCOC(=O)CCCCC(=O)c1[nH]c(=O)[nH]c1CSc1nc2ccccc2[nH]1	-8	i	4	-4	0	nt	nt	-4
Cc1oc2nc(SCCCC(=O)NCCO)nc(N)c2c1C	0	i	-4	3	2	nt	nt	5
Cn1nnnc1SCc1csc(Nc2ccccc2)n1	-9	i	-1	8	0	-9	nt	7
O=C(Cn1nnc(-c2ccccc2)n1)Nc1cccc(S(=O)(=O)N2CCOCC2)c1	-5	i	nt	6	-3	-10	9	nt
COc1cccc(C(=O)Nc2ccc3c(c2)C(=O)N(CCC(=O)O)C3=O)c1	nt	i	1	-3	-1	nt	-39	-4
NNC(=O)[C@H](Cc1ccccc1)NC(=O)NCCc1ccccc1	-14	i	7	-3	0	-7	1	4
CCOc1ccc(N(CC(=O)NCC2CCCO2)S(=O)(=O)c2ccc(Cl)cc2)cc1 (stereo not drawn)	-16	i	1	-8	0	-3	-31	-4
Cc1csc(=O)n1CC(=O)Nc1ccc(C(C)C)cc1	-8	nt	nt	-1	2	nt	-43	nt
Cc1ccc(NC(=O)N2CCC(c3ccccc3)C2)cc1C (stereo not drawn)	-31	i	0	-4	-6	-5	-51	2
CC(=O)Nc1ccc(S(=O)(=O)NCc2ccncc2)cc1	-6	i	0	6	-8	5	26	0
Cc1ccc(S(=O)(=O)N2[C@@H](c3ccc(Br)cc3)C(C(=O)O)=CC[C@H]2c2ccc3c(c2)OCO3)cc1	7	nt	nt	1	5	nt	12	nt
NNC(=O)CCn1c2ccccc2c2ccccc21	nt	i	8	-2	2	-5	-7	-12
CCCn1nnc2ccccc2c1=O	-20	i	2	-3	1	-20	-30	-4
Cc1c(C#N)c2ccccc2n1CC(=O)O	-17	i	nt	0	8	12	9	nt
CCOC(=O)c1cc(C#N)c(N)nc1C	-6	i	-2	1	-2	2	-63	-13
COc1ccc(C(=O)N/N=C/c2cc3ccccc3[nH]c2=S)cc1	-3	i	47	-1	-8	3	-131	-5
Cc1ccc(S(=O)(=O)N2CCOCC2)cc1NC(=O)CNCc1cccnc1	-13	i	0	2	3	1	9	8
Cc1ccc(C)c(NC(=O)NNC(=O)CCc2ccccc2)c1	0	i	-5	2	3	3	-8	-8
CCN(CC)C(=O)Cn1cnc2c1c(=O)n(C)c(=O)n2C	-15	i	-2	2	2	-10	13	5
O=c1ccn(-c2cccc(C(F)(F)F)c2)nc1-c1ccn(-c2ccccc2F)n1	-2	i	-4	-11	-11	-9	nt	1
O=c1[nH]c(SCc2ccccc2Cl)nc2c1CCCC2	2	i	6	-1	0	-1	-28	1
O=C(NCc1ccccc1Cl)C1CCCO1 (stereo not drawn)	1	i	13	-3	0	nt	-8	-2
CCC(C)NC(=O)c1ccccc1NC(=O)c1ccc(CSc2ccc(C)cc2)cc1 (stereo not drawn)	-9	i	-3	1	-1	0	nt	6
C/C(=N/NC(=O)C1CCCCC1)c1ccc([N+](=O)[O-])cc1	nt	i	4	12	10	-2	-18	2
C=C1C2(C(=O)Nc3nccs3)CCC(C2)C1(C)C (stereo not drawn)	-7	i	-2	2	-2	5	-4	3
CCSc1nc2sc3c(c2c(=O)n1-c1ccccc1C)CCN(C)C3	-9	i	3	-3	3	-5	-3	5
O=C(CSc1nc(O)cc(=O)n1-c1ccccc1)Nc1ccc(Br)cn1	-9	i	10	3	4	-15	-2	4
Cc1ccc(C)c(NC(=O)CN(C)C(=O)C2COc3ccccc3O2)c1 (stereo not drawn)	-11	nt	nt	0	1	-11	0	nt
CCOC(=O)c1sc2ncn(C(C)C(=O)OC)c(=O)c2c1C (stereo not drawn)	nt	i	-6	3	3	-10	-251	-8
O=C(Cn1c(=O)oc2cc(S(=O)(=O)NCc3ccccc3)ccc21)N1CCCC1	-16	i	-6	2	1	19	7	-4
CC1CCCCN1C(=O)CSc1nnc(CSc2ncccn2)n1C (stereo not drawn)	nt	i	0	-2	5	-16	2	-2
CCCCCn1c(=O)[nH]c2cc(C(=O)NCCCN3CCCCC3C)ccc2c1=O (stereo not drawn)	-6	nt	5	-1	2	-6	-15	-11
CCCCNC(=O)Nc1ccc2c(c1)N(C)C(=O)c1ccccc1S2	3	i	7	3	-2	5	1	5
CC(=O)NCCc1c(C)n(Cc2ccccc2)c2ccccc12	-5	nt	-9	-3	-2	5	-2	-4
COc1ccc(NC(=O)CSc2nnc(NC(=O)CN3CCOCC3)s2)cc1	nt	i	17	5	-1	3	-3	-6
COc1cc(/C=C2\SC(=S)N(NC(=O)c3ccccc3O)C2=O)ccc1O	-4	i	-8	-3	43	2	2	24
CCc1ccc(OC2(C)CCN(CCOc3ccc(C)cc3)C2)cc1 (stereo not drawn)	-4	nt	nt	4	9	nt	0	nt
CCCOC(=O)c1c(NC(=O)c2cnn3c2NC(c2ccccc2)CC3C(F)(F)F)sc2c1CCCC2 (stereo not drawn)	-13	i	0	-4	-6	-6	11	2
O=C(c1ccccc1)c1ccc(OCC(O)CN2CCN(S(=O)(=O)N3CCCCC3)CC2)cc1 (stereo not drawn)	9	i	-1	-2	-18	nt	60*	-5
CCOC(=O)C1CCCN(S(=O)(=O)c2ccc3c(c2)C(C)(C)C(=O)N3C)C1 (stereo not drawn)	-13	i	-6	1	-1	8	12	-18
O=C(NC1CCCCC1)c1cc(-c2ccc(F)cc2)on1	-21	i	-2	-2	2	42	-6	4
Cc1ccc(Cn2c(-n3nc(C)cc3C)nc3c2c(=O)[nH]c(=O)n3C)cc1	-12	i	-9	-6	0	2	3	0
CSCC[C@H](NC(=O)OC(C)(C)C)C(=O)N1CCC(C(=O)N[C@@H](C)C(=O)NCc2ccc(F)cc2)CC1	3	nt	-8	-2	3	1	nt	-1
N#Cc1ccccc1NC(=O)COc1ccccc1C(=O)Nc1ccccc1	-6	nt	nt	4	-3	4	2	nt
O=C(CCC(NC(=O)OCc1ccccc1)C(=O)OCc1ccccc1)NCC(=O)OCc1ccccc1 (stereo not drawn)	-6	i	1	1	2	nt	-11	-5
NC(=O)COC(=O)c1oc2ccccc2c1CSc1ccc(Cl)cc1	-6	nt	-8	0	2	14	13	-5
CCCNC(=O)c1cc(C2CCCCN2C(=O)OC)on1 (stereo not drawn)	-8	nt	nt	-2	5	nt	6	nt
O=C(Nc1ccccc1OC(F)F)C1CCCN1C(=O)c1cccs1 (stereo not drawn)	nt	i	-6	2	6	-12	23	-8
O=C(CNC(=O)c1ccccc1)OC(C(=O)Nc1cc(C(F)(F)F)ccc1Cl)c1ccccc1 (stereo not drawn)	-4	i	-7	-1	0	12	nt	8
CCCOc1ccc(N2C(=O)C3ON(c4ccccc4)C(CCC)C3C2=O)cc1 (stereo not drawn)	3	i	-9	0	5	-8	6	0
CCN1C(=O)CC(C(=O)NC)SC1=Nc1cc(Cl)c(O)c(Cl)c1 (stereo not drawn)	nt	i	4	-2	2	-3	-2	-5
CCOc1ccccc1NS(=O)(=O)N(C)C	-16	i	-4	2	-1	-1	-82	2
Nc1ccc2nc(Cc3ccccc3)[nH]c2c1	1	i	14	7	4	19	8	-4
Cc1ccn2c(NC3CCCCC3)c(C)nc2c1	-17	i	8	3	-3	-16	-26	-2
CCN(CC)c1nc(C#N)cc(-c2ccc(OC)cc2)n1	-9	i	-12	3	-18	-2	nt	-5
COc1cc(/C=N/Nc2nc3ccccc3[nH]c2=O)ccc1O	-21	i	?	0	4	4	-4	17
CCn1c(=O)c(C(=O)NNS(=O)(=O)c2ccc(Cl)cc2)c(O)c2ccccc21	-9	i	8	4	12	11	5	3
Cc1ccc(S(=O)(=O)N2CC3(O)CN(C(=O)OC(C)C)N(C(=O)OC(C)C)CC3(OC(=O)NCC3CCCCC3)C2)cc1 (stereo not drawn)	3	nt	nt	-7	-9	nt	73*	nt
CCCn1c(C)cc(=O)c2cc(NC(=O)c3ccccn3)ccc21	-13	i	-6	6	0	-1	nt	-6

Next section (5 carried over from the part before).
SMILES	UUG fidelity	Rce1 inhib	PABP FP inh	MT1-MMP act inh	MT1-MMP act inh RFP	CSC inhib	Env fusion inh	eIF4H inh
CCN(CC)c1nc(C#N)cc(-c2ccc(OC)cc2)n1	-9	i	-12	3	-18	-2	nt	-5
COc1cc(/C=N/Nc2nc3ccccc3[nH]c2=O)ccc1O	-21	i	?	0	4	4	-4	17
CCn1c(=O)c(C(=O)NNS(=O)(=O)c2ccc(Cl)cc2)c(O)c2ccccc21	-9	i	8	4	12	11	5	3
Cc1ccc(S(=O)(=O)N2CC3(O)CN(C(=O)OC(C)C)N(C(=O)OC(C)C)CC3(OC(=O)NCC3CCCCC3)C2)cc1 (stereo not drawn)	3	nt	nt	-7	-9	nt	73*	nt
CCCn1c(C)cc(=O)c2cc(NC(=O)c3ccccn3)ccc21	-13	i	-6	6	0	-1	nt	-6
Nc1ccc2c(c1)nnn2-c1ccccc1	3	i	3	7	7	-8	-19	-4
COc1cc(OC)cc(-c2oc(=O)c3cc(OC)c(OC)cc3c2C#CCCCO)c1	-16	nt	nt	3	0	9	13	nt
Cc1ccc2oc(=O)n(CCC(=O)Nc3ccc(N4CCOCC4)cc3)c2c1	-18	i	-1	2	0	3	8	-10
COc1ccc(-c2c(C#N)c(C)nc3c2C(=O)c2ccccc2-3)cc1	-16	i	-2	9	-1	4	-107	-1
CC1ON=C(c2ccc(F)cc2)NC1=O (stereo not drawn)	-5	nt	nt	5	6	nt	-15	nt
CCOC(=O)Cn1c2ccccc2n2nc(CCC(=O)O)c(=O)nc12	-12	i	1	-2	3	0	-5	-10
C=CCn1c(SCC(=O)Nc2sccc2C#N)nc2sc(C)c(C)c2c1=O	-3	i	-19	-2	-2	1	-66	-12
O=C(Nc1ccc2c(c1)OCO2)C1CCCN1C(=O)Nc1ccccc1 (stereo not drawn)	-4	i	-9	5	5	-16	13	-4
O=C(CNC(=O)c1ccc(Br)o1)Nc1ncccc1O	-16	i	nt	1	3	-17	-6	nt
Cc1cccc(N2CCc3c2nc2ccc(Br)cc2c3N)c1	9	+	14	4	-9	56	nt	-3
O=C(NCCC(=O)N(CCc1ccccc1)Cc1ccccc1)c1ccc([N+](=O)[O-])cc1	-12	i	nt	-1	-4	-6	11	nt
Cc1cc(=O)[nH]c(N/N=C/c2cccs2)n1	-14	i	1	1	8	-8	8	-12
O=C(Nc1cccc2c1C(=O)NC2=O)c1ccc(S(=O)(=O)N2CCCC2)cc1	-7	nt	8	-2	2	-8	nt	-1
Cc1cc(Nc2ccc3ccccc3c2)n2ncnc2n1	-17	nt	-1	-2	14	2	nt	2
O=C(CC1C(=O)NCCN1C(=O)Nc1ccccc1)Nc1cc(Cl)ccc1Cl (stereo not drawn)	-8	i	7	3	4	-4	-1	-4
CCc1ccccc1NC(=O)CC(O)(C(=O)OC)C(F)(F)F (stereo not drawn)	nt	i	-2	5	4	-2	nt	-5
CCOC(=O)Nc1sc2c(c1C(=O)OCC)CCC2	-10	i	-3	-1	3	-7	32	-5
O=C(CSc1nnc(-c2ccc(F)cc2)o1)c1ccc2c(c1)OCCO2	-8	i	8	2	0	-11	nt	-4
Cc1ccc(C)c(NC(=O)CCN2CC(C)CC(C)C2)c1 (stereo not drawn)	0	i	0	0	-2	-7	3	3

Assay outcomes: PubChem, several laboratories
